VDR inh: vitamin D3 receptor (human) inhibition | VDR-SRC2-3 peptide fluorescence polarization, 2 h | Potency, µM, for inactives: max response, negative = inhibition, usual class: inhibitors | actives 0.93% (n = 400,000); active = well fitted inhibition curve with a large enough effect; inconclusive = small, poorly fitted or top-dose-only effect, or another doubt; inactive = no such curve, though single readings can be large or run the other way; also: series mostly up to about 120 µM
Target sequence (P11473 whole entry, looked up): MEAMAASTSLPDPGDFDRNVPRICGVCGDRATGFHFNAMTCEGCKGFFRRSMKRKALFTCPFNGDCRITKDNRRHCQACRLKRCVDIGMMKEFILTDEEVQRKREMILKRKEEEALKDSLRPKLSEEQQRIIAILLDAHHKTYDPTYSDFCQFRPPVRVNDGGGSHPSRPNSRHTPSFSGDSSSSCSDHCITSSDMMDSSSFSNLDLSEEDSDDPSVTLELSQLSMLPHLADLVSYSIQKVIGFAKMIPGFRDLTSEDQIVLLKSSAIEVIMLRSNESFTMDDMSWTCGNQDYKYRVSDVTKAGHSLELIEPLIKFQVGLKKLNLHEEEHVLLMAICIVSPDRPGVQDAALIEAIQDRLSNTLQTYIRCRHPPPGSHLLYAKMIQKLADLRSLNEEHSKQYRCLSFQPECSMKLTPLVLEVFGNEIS
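Inhibition of the VDR/SRC2-3 peptide interaction is quantified by fluorescence polarization. Compounds (23 nl, pintool) incubate with the reagents for 2 hours at ambient room temperature.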
* marks the source's active call; other numbers are inactive results; ? = inconclusive; & = joins results of further samples. % is scaled to controls: 0 for no effect and ±100 for the full control effect; potency is read from the fitted curve at half-maximal effect. Some of the compounds tested; the hit share may differ from the screen's.

SMILES	VDR inh
COc1ccccc1CNC(=O)C1CCN(S(=O)(=O)c2ccc3c(ccn3C)c2)CC1	23%
CCN(C(=O)CN1CCN(c2ccc(O)cc2)CC1)c1c(N)n(Cc2ccccc2)c(=O)[nH]c1=O	-29%
COc1cccc(NC(=O)Cn2c(=O)cc(C)c3c(C)nn(-c4cccc(F)c4)c32)c1	-2%
COc1cc([N+](=O)[O-])ccc1NC(=O)COC(=O)C=C(C)C	23%
Cn1c(=O)n(C)c2cc([N+](=O)[O-])c(N3CCN(C(=O)c4ccc(F)cc4)CC3)cc21	-17%
COC(=O)C(Cc1ccccc1)NC(=O)C12CC3CC(CC(C3)C1)C2 (stereo not given)	7%
Cc1ccc(-n2c(=O)c3c4c(sc3n3c(C)nnc23)COC(C(C)C)C4)cc1 (stereo not given)	6%
COC(=O)c1sc(-c2ccccc2)cc1NC(=O)Nc1ccc(F)cc1	5%
Cc1cccc(C)c1N1CCN(C(=O)N2CCOCC2)CC1	-26%
Cc1ccc(C)c(NC(=O)CCC(=O)N/N=C/c2cc([N+](=O)[O-])ccc2O)c1	1%
CCOc1cc(Br)ccc1S(=O)(=O)N1CCC(C(N)=O)CC1	-23%
O=C(/C=N/O)NCCCn1ccnc1	7%
O=C(NCCCN1CCOCC1)c1cc(S(=O)(=O)N2CCOCC2)c(Cl)cc1Cl	-6%
COc1ccc(OC)c(NC(=O)CN(c2ccc(OC)c(Cl)c2)S(C)(=O)=O)c1	9%
Cc1noc(NS(=O)(=O)c2ccc(NC(=O)C34CC5CC(C3)CC(n3cnc(Cl)n3)(C5)C4)cc2)c1C	-26%
CCOCN(C(=O)CSc1nc2ccccc2[nH]1)c1c(C)cccc1CC	8%
O=C(CSc1nccn1-c1ncc(C(F)(F)F)cc1Cl)c1ccc(Cl)cc1	45µM*
Cc1cc2cc3c(cc2nc1SCC(=O)N1c2ccccc2CC1C)OCO3 (stereo not given)	16%
CC(c1ccc(F)cc1)n1cc(C(=O)NCc2ccccn2)nn1 (stereo not given)	-24%
CCOc1ccccc1NC(=O)c1ccc(F)c(S(=O)(=O)N2CCC3(CC2)OCCO3)c1	-10%
COc1ccc(O/C(=N\S(=O)(=O)c2ccccc2)c2ccccc2)cc1	-11%
COC(=O)c1ccc(OCC(O)CNCC(c2ccc(OC)cc2)N(C)C)c(OC)c1 (stereo not given)	-6%
CC1CCN(S(=O)(=O)c2ccc3c(ccc(=O)n3CC(=O)Nc3ccc(C(C)C)cc3)c2)CC1	9%
CN(C)c1nc(Cl)nc2c1nc(Cl)n2C1CCCCO1 (stereo not given)	-5%
COCc1cc(C)nc(OC)c1C(N)=O	17%

Six entries from above, comma-delimited.
structure,VDR inh
COC(=O)C(Cc1ccccc1)NC(=O)C12CC3CC(CC(C3)C1)C2 (stereo not given),7%
Cc1ccc(-n2c(=O)c3c4c(sc3n3c(C)nnc23)COC(C(C)C)C4)cc1 (stereo not given),6%
COC(=O)c1sc(-c2ccccc2)cc1NC(=O)Nc1ccc(F)cc1,5%
Cc1cccc(C)c1N1CCN(C(=O)N2CCOCC2)CC1,-26%
Cc1ccc(C)c(NC(=O)CCC(=O)N/N=C/c2cc([N+](=O)[O-])ccc2O)c1,1%
CCOc1cc(Br)ccc1S(=O)(=O)N1CCC(C(N)=O)CC1,-23%

Next results
SMILES	VDR inh
CCCc1cc(=O)n2[nH]c(Cc3ccccc3)nc2n1	9%
COc1ccc(N(CC(=O)Nc2ccc3c(c2)OCCO3)S(=O)(=O)c2c(C)noc2C)cc1	?
CCNC(=O)c1cc2n(n1)CCCN(Cc1ccc(C)cc1)C2=O	-12%
COc1cc(NC(=S)NC2CC(C)(C)NC(C)(C)C2)c(OC)cc1Cl	-12%
COc1ccccc1CNC(=O)c1ccc(S(=O)(=O)N(C)C)cc1	15%
Cc1cc2cc(CNC(=O)NC3CCCCC3)ccc2[nH]1	18%
C#CCOCCOCCOCCNc1nc(N2CCN(C(=O)CCCCCCCCCCNC(=O)Cn3cc(C[C@@H](C)O)nn3)CC2)nc(N2CCN(C(=O)CCCCCCCCCCNC(=O)[C@@H](CCSC)n3cc(CCO)nn3)CC2)n1	-2%
CC1(C)NC(=O)N(CC(=O)Nc2cc(C(F)(F)F)cc(C(F)(F)F)c2)C1=O	-1%
O=C(CSc1ccc(Cl)cc1)Nc1ccccc1Oc1ccccc1	-15%
Cc1cc(C)n(C(=O)C(C)N2C(=O)c3ccccc3C2=O)n1 (stereo not given)	-16%
Cc1cccc(NC(=O)C(c2ccccc2)N2Cc3ccccc3C2=O)c1C (stereo not given)	18%
Cc1ccc(OCCOC(=O)Cn2nc(C)c([N+](=O)[O-])c2C)cc1	-14%
COc1cc(C(C)=NNC(=O)c2ccncc2)ccc1O	-1%
COC(=O)c1c(NC(=S)Nc2ccc(F)cc2[N+](=O)[O-])sc2c1CCCCC2	-3%
O=C(Nc1cc(S(=O)(=O)N2CCOCC2)ccc1O)c1ccc(S(=O)(=O)N2CCCCC2)cc1	-32%
Cc1ccccc1N1C(=O)CC1(C#N)c1ccc(OCc2ccccc2)cc1 (stereo not given)	-17%
O=C(NCc1ccccc1)C1CCN(c2nc(-c3ccccc3)nc3c2CCC3)CC1	-8%
CSc1nc(O)c(C(c2ccc(C)cc2)c2c(O)nc(SC)[nH]c2=O)c(=O)[nH]1	?
CCOc1ccc(C2=Nn3c(nnc3-c3ccc(OC)cc3)SC2)cc1	-6%
COC(=O)CC1=C(C(=O)OC)C(c2ccc3c(c2)OCO3)C(C#N)=C(N)O1 (stereo not given)	11%
COc1cccc(Cn2c(OCC3CCCO3)nc3c2c(=O)n(C)c(=O)n3C)c1 (stereo not given)	-6%
CCOC(=O)c1cccc(NC(=O)CN2C(=O)C3C4C=CC(C4)C3C2=O)c1 (stereo not given)	-3%
CCSc1nnc2c(Cl)cc(Cl)cn12	3%
NCCCC(=O)O	3%&-16%&-4%
C=CCn1c(SCC(=O)c2cccs2)nc2sc(CC)cc2c1=O	-7%
The list goes on.
SMILES	VDR inh
Cc1ccc(CCNC(=O)c2ccc(NC(=O)N3CC(C)Sc4ccccc43)cc2)cc1 (stereo not given)	3%
CC(=O)c1ccc(NC(=O)c2cccc(N3C(=O)c4ccccc4C3=O)c2)cc1	2%
Cc1cc(C)nc(NS(=O)(=O)c2ccc(NC(=O)c3ccc4c(c3)OCO4)cc2)n1	2%
O=C(COc1ccc(Br)cc1Cl)N1CCN(c2ncccn2)CC1	-6%
Cn1nc(CC(=O)NCc2ccc(F)cc2)c2ccccc2c1=O	-8%
Cc1ccc(NC(=O)C2CCC(CNC(=O)[C@@H]3Cc4ccccc4CN3)CC2)cc1 (stereo not given in full)	-12%
O=C(Nc1ccc2snnc2c1)N1CCCCC1	-16%
C[C@@H]1COC(=O)[C@H](NC(=O)OCC2c3ccccc3-c3ccccc32)C/C=C\C[C@@H](CC(=O)N[C@@H](CO)Cc2ccccc2)C(=O)N1	-12%
CCNC(=S)Nc1cc(C(=O)N2CCCC2)ccc1N1CCCC1	19%
CCN1C(=O)C2(C(C(=O)c3cc4ccccc4o3)=C(O)C(=O)N2CCCN2CCOCC2)c2ccccc21 (stereo not given)	-21%
COc1ccc(Cl)cc1NC(=O)CCc1ccccc1	-8%
CN1CCN(c2nc3c(c(=O)n(C)c(=O)n3C)n2Cc2ccccc2)CC1	-7%
Cc1cc(N)nc(C)c1C#N	-6%
CCC(Sc1nnc(-c2ccc(C)c(Cl)c2)n1CC)C(=O)Nc1nccs1 (stereo not given)	-11%
CCOC(=O)Cn1cc(C=O)c2ccccc21	21%
CC1CC(C)CN(C(=O)CNC(=O)Cn2ccc3ccccc3c2=O)C1 (stereo not given)	11%
O=C(c1ccncc1)N1CCC2(CC1)CN(c1ccncc1)C2	-2%
Cc1ccc(S(=O)(=O)n2cnc3cc([N+](=O)[O-])ccc32)c(C)c1	-12%
CC(=O)c1cccc(S(=O)(=O)N(C)C2CCN(C)CC2)c1	5%
COc1ccc(-n2ccn(CC(=O)Nc3ccccc3OC)c(=O)c2=O)cc1	3%
CCNc1ncc2ncc(=O)n(C)c2n1	-2%
N#C/C(=C(/O)c1ccc(Cl)c([N+](=O)[O-])c1)c1nc2ccccc2[nH]1	11%
COc1ccc(-c2cc(=O)[nH]c(N3CCN(Cc4ccccc4)CC3)n2)cc1	-21%
O=C(NCc1ccccc1)c1cnsn1	-11%
c1ccc(Nc2nc(N3CCNCC3)nc(N3CCOCC3)n2)cc1	0%

The closing 4 compounds of the section above come first, to join the parts.
SMILES	VDR inh
N#C/C(=C(/O)c1ccc(Cl)c([N+](=O)[O-])c1)c1nc2ccccc2[nH]1	11%
COc1ccc(-c2cc(=O)[nH]c(N3CCN(Cc4ccccc4)CC3)n2)cc1	-21%
O=C(NCc1ccccc1)c1cnsn1	-11%
c1ccc(Nc2nc(N3CCNCC3)nc(N3CCOCC3)n2)cc1	0%
O=c1[nH]c2cc([N+](=O)[O-])c([N+](=O)[O-])cc2[nH]c1=O	-4%&-23%
O=C(COC(=O)C1CCN(/C=C/C(=O)C(F)(F)F)CC1)Nc1ccccc1	0%
Cc1nc(-c2ccc(Cl)cc2)sc1CCNC(=O)Cc1ccc(F)cc1	7%
Cc1ccc(C2CC(c3cccs3)=NN2C(=O)CSc2nc(=O)n3cc(C)ccc3n2)cc1 (stereo not given)	-6%
Oc1ccc2ccccc2c1C=Nc1ccc(N2CCOCC2)cc1	-14%
CC(C)(Oc1ccc(Br)cc1Cl)C(=O)Nc1ccon1	-3%
COc1ccc(-c2oc3cc(O[C@@H]4OC(CO)C(O)C(O)C4O)c(OC)c(O)c3c(=O)c2OC)cc1O (stereo not given in full)	-11%
CCOC(=O)C1CCN(C(=O)c2ccc(NS(=O)(=O)c3ccc4[nH]c(=O)[nH]c4c3)cc2)CC1	-4%
O=C(CCc1c[nH]c2ccccc12)NC(Cc1ccccc1)C(=O)O (stereo not given)	23%
Cc1ccc(-c2nc(C#N)c(NCCCn3ccnc3)o2)cc1	0%
CCOc1ccc(NC(=O)CN(C)C(=O)c2sccc2-c2ccccc2)cc1OCC	-12%
CC(/C=N/Nc1nnc(C)c(=O)[nH]1)=C\c1ccccc1	-5%
COc1ccccc1C=CC(=O)C=Cc1ccccc1OC	?
CCc1oc2ccccc2c1C(=O)CCN1CCCCC1	?
OCC[C@@H]1C[C@@H](O)[C@H](O)[C@@]2(Cc3ccccc3CO2)O1	19%
N#C/C(=C/c1ccc(-c2ccccc2[N+](=O)[O-])o1)C(N)=O	-10%
c1ccc(CCCN2CCN(c3ccccn3)CC2)cc1	-26%
COc1ccc(/C=N/NC(=O)CSc2nnc(C)n2-c2ccccc2)c(OC)c1OC	-7%
O=C(/C=C/c1cccc(C(F)(F)F)c1)OCC(=O)N1CCN(c2ccccc2)CC1	-7%
O=C(COC(=O)/C=C/c1cccs1)Nc1cccc(S(=O)(=O)N2CCCC2)c1	20%
COc1ccc(N2CCN(C(=O)CN(C)S(=O)(=O)c3cc(C)ccc3OC)CC2)cc1	14%
CCN(Cc1ccccc1)C(=O)Cc1ccc(OC)c(S(=O)(=O)N2CCOCC2)c1	?
Cc1cccc(NC(=O)Cn2c(=O)oc3ccccc32)n1	-3%
Cc1cccc(N2CN(Cc3cccnc3)CNC2=S)c1	3%
COCCCNc1oc(-c2ccccc2F)nc1C#N	?
(further entries)
SMILES	VDR inh
CC(=O)N1CCc2cc(C(=O)CN3CCN(C(=O)c4ccco4)CC3)ccc21	-21%
O=C(NCc1ccco1)C1CCN(C(=O)N2CCOc3ccc(Cl)cc32)CC1	-5%
CN(C)c1ccccc1-c1csc(N2CCC(C(N)=O)CC2)n1	-17%
CC(=O)NC(c1ccc(C)cc1)c1cc(Cl)c2cccnc2c1O (stereo not given)	19%
O=C(NCCS(=O)(=O)N1CCN(c2ccccc2F)CC1)c1ccccc1C(F)(F)F	-3%
COc1ccc(CC(=O)NCC(c2ccc(Cl)cc2)N2CCOCC2)cc1 (stereo not given)	8%
CCCCC1=CC2=C(c3ccco3)C(=O)C(C)(OC(=O)c3ccc(OC)cc3)C(=O)C2=CN1c1ccc(OC)cc1 (stereo not given)	-7%
COc1ccc(NC(=O)CC(C)CC(=O)NCc2ccc(F)cc2)c(OC)c1 (stereo not given)	11%
COc1ccccc1/C=N/NC(=S)Nc1cccnc1	-8%
c1ccc(CSc2nncn2-c2ccccn2)cc1	-5%
COc1ccc2[nH]c(=O)c(CN(C(C)=O)C3CCCCC3)cc2c1	-10%
Cc1nn(C(C)C(=O)N2CCOCC2)c(C)c1[N+](=O)[O-] (stereo not given)	-2%
COc1ccc(NC(=O)CCC(=O)Nc2nnc(C(C)C)s2)cc1Cl	-13%
O=C(Nc1nc(-c2ccc3c(c2)Cc2ccccc2-3)cs1)c1ccccc1	2%
Cc1ccc(C(=O)N2CCc3cc(CNC(=O)c4ccccc4F)ccc32)cc1	19%
COc1cc(/C=C2\CCC(C)C3=C(c4cc(OC)c(OC)c(OC)c4)C(C#N)=C(N)OC32)cc(OC)c1OC (stereo not given)	4%
C/C(N)=C(/C#N)C(=O)CSc1cc(C)c2ccccc2n1	-3%
Cc1cnc(CN(C)C(=O)c2ccc3oc(Cc4ccccc4)nc3c2)[nH]1	-2%
C=CCC1NS(=O)(=O)OC2CCCC12 (stereo not given)	-28%
COc1ccc(CCNC(=O)c2noc3c2CCCC3)cc1OC	-9%
CN(C(=O)c1ccccc1C(=O)OCC(=O)NC(=O)NC(C)(C)C)C1CCCCC1	-4%
N#C/C(C(=O)N1CCOCC1)=C1\Nc2ccccc2S1	9%
COc1ccc(N(CC(=O)Nc2cccnc2)S(=O)(=O)c2ccccc2)cc1Cl	-3%

Shown as a hit in VDR inh, of those listed so far:
SMILES	VDR inh
O=C(CSc1nccn1-c1ncc(C(F)(F)F)cc1Cl)c1ccc(Cl)cc1	45µM*

Screening results from PubChem BioAssay.
